RecA intein inh: blocks M. tuberculosis RecA intein splicing; P9WHJ3; cell-free RecA intein splicing, fluorescence; inhibition, %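 (about 9 µM by stock and volumes)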; hit rate 0.75% among 290,000; AID 2221; in the data active = inhibition above about 30%; inconclusive = no clear call, values can overlap the other calls;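 also: 0% = vehicle wells and 100% = reference inhibitor control wells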
Target sequence (P9WHJ3 whole entry, looked up): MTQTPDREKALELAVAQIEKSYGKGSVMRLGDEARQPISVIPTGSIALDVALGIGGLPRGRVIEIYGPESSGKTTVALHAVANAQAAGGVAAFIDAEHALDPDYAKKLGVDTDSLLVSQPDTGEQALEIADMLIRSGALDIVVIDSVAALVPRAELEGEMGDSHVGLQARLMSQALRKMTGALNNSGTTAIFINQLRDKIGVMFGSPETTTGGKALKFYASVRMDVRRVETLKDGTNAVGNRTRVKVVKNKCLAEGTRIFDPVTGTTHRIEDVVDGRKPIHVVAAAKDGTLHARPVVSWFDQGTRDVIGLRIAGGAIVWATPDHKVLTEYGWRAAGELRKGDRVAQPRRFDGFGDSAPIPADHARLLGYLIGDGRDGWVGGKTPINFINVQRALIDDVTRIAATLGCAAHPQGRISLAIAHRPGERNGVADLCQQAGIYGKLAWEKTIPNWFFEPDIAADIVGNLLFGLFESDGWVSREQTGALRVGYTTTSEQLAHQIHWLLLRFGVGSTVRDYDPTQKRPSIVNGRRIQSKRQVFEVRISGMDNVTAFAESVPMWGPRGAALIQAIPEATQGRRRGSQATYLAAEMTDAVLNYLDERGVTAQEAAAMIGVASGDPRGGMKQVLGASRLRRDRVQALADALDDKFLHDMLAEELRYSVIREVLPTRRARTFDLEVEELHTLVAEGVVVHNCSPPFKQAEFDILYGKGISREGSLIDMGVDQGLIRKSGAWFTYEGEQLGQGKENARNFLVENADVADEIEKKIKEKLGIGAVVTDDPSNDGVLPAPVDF
Mtb growth: M. tuberculosis H37Rv growth inhibitors, H37Rv strain (AID 1626). M. tuberculosis H37Rv growth inhibition; higher % means a stronger effect. inhibition, % at 10 µM, or IC50 in µM where a hit was titrated. hit rate 0.95% among 220,000;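 active = confirmed in a dose series; inconclusive = inhibition above 80% but not taken into the dose series; inactive = below 80% or under 30% at every dose of the series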;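 also: bacteria incubated seven days before Alamar blue readout; 0% = bacteria only wells and 100% = bacteria with antibiotic wells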
YopH PTP inh: inhibitors of Yersinia enterocolitica YopH tyrosine phosphatase; fluorescence Ex485/Em525; hit rate 0.16% among 140,000; inhibition, %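 (about 10 µM by stock and volumes)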; AID 898;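 active = inhibition of 50% or more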;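 also: controls were vehicle for no effect and minimum signal wells for full effect; inactives centre near -20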
Arbovirus inh: arbovirus infection inhibition | arbovirus infection cell-based antiviral screen | inhibition, % at 10 µM | hit rate 0.37% among 200,000 | AID 1251;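 active = inhibition from about 30%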;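 also: bluetongue infection of BSR cells; cell survival read as ATP light after 72 h; 0% = infected wells without compound and 100% = uninfected wells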
Mtb betalactam: beta-lactam sensitization of Mtb H37Rv; M. tuberculosis H37Rv growth with meropenem, percent inhibition; hits of this screen are not shown here; inhibition, % at 25 µM; hit rate 0.27% among 330,000;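 active = about 74% or more and at least 40 points above the plate without the antibiotic, then above 30% in a dose series; inconclusive = first-round hits that could not be retested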;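 also: growth measured after seven days incubation then overnight dye step; 0% = bacteria only wells and 100% = bacteria with antibiotic; twin plates without the antibiotic show which effects depend on it; some results filed as inactive read as strong as hits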
Arbovirus inh repeat: also measured in Arbovirus inh; calls as there; inhibition, %; measured here: 10K subset replicate screen; many hits read low in the repeat;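 first of two repeat runs on a subset; 0% = infected and 100% = uninfected wells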
* hit, by the source's call; ? = inconclusive; nt = no result given. The list is partial; count on the stated rates, not on these rows.

The first 4 compounds (preview)
SMILES | RecA intein inh | Mtb growth | YopH PTP inh | Arbovirus inh | Mtb betalactam | others
O=C(CSc1nc(C2CC2)nc2c1cnn2-c1ccccc1)Nc1c[nH]c(=O)[nH]c1=O | -1.9 | 8% | nt | 10 | -1
Cc1cccc(OCC(=O)N2CCC(c3ccccc3)C2)c1 (centres undefined) | 0.3 | -10% | 1 | 0 | -1 | Arbovirus inh repeat=-2
O=C(CCl)N1c2ccccc2OCC1c1ccccc1 (centres undefined) | 81* | -4% | -22 | -4 | 99
CCOC(=O)CC1COCCN1Cc1cn[nH]c1-c1cc(OC)c(OC)c(OC)c1 (centres undefined) | -0.6 | -3% | nt | nt | 0

This part in full, repeating the preview:
SMILES | RecA intein inh | Mtb growth | YopH PTP inh | Arbovirus inh | Mtb betalactam | others
O=C(CSc1nc(C2CC2)nc2c1cnn2-c1ccccc1)Nc1c[nH]c(=O)[nH]c1=O | -1.9 | 8% | nt | 10 | -1
Cc1cccc(OCC(=O)N2CCC(c3ccccc3)C2)c1 (centres undefined) | 0.3 | -10% | 1 | 0 | -1 | Arbovirus inh repeat=-2
O=C(CCl)N1c2ccccc2OCC1c1ccccc1 (centres undefined) | 81* | -4% | -22 | -4 | 99
CCOC(=O)CC1COCCN1Cc1cn[nH]c1-c1cc(OC)c(OC)c(OC)c1 (centres undefined) | -0.6 | -3% | nt | nt | 0
COc1ccc(S(=O)(=O)N2CCc3ccccc32)cc1C(=O)OCC(=O)c1c(N)n(C)c(=O)n(C)c1=O | 1.3 | 7% | nt | 0 | 4
COc1ccc(S(=O)(=O)N2CCC(C(=O)NCC3CCCO3)CC2)cc1 (centres undefined) | 1.4 | -8% | -9 | 15 | -6
N#C/C(=C\c1ccc(N2CCOCC2)o1)C(=O)N1CCOCC1 | -11 | -3% | -7 | -2 | -5
CC(=O)NCCn1c(SCC(=O)NCC2CCCO2)nc2ccccc2c1=O (centres undefined) | 0.6 | 0% | -6 | 2 | -7
CN(C)CCCNC(=O)c1cc(S(=O)(=O)N2CCOCC2)ccc1F | -2.2 | 0% | -14 | 2 | -9
CCCNC(=O)c1cc(Cl)c(NC(=O)C2=C(C)OCCS2)cc1OC | -0.2 | nt | nt | nt | 87
Cc1ccc(C(CC(=O)O)Nc2nc(N3CCOCC3)nc(N3CCOCC3)n2)cc1 (centres undefined) | 1.0 | 2% | -29 | 1 | -2
COC(=O)CCCCCC(CCC(=O)OC)NC(C)=O (centres undefined) | 3.2 | -1% | -16 | 12 | ?
COCCC1CCCCN1C(=O)c1ccc(OC)c(OC2CCN(C(C)=O)CC2)c1 (centres undefined) | -0.8 | nt | nt | nt | -20
COc1ccccc1-c1nnc(SC(C)C(=O)N2CCOCC2)o1 (centres undefined) | -4.5 | nt | nt | nt | -8
CC12CCC(C(=O)N(NC(=O)c3cc(Cl)ccc3O)C1=O)C2(C)C (centres undefined) | -1.9 | 1% | -8 | 2 | -13
Cc1cc(OC(=O)C(c2ccccc2)c2ccccc2)c([N+](=O)[O-])c(=O)[nH]1 | nt | 0% | -25 | 6 | 0
CCC(=O)/C=C1\Sc2ccccc2N1CC | -1.2 | 1% | -28 | -8 | -2
COc1cc(NC(C)C(=O)N2CC(C)OC(C)C2)cc(OC)c1 (centres undefined) | -1.3 | 3% | 4 | 7 | 0
CC1(C)COC(Nc2cccc(Cl)c2)=N1 | 1.1 | -6% | -24 | 0 | 0
O=C(c1ccc2c(c1)N(Cc1ccccc1)CCS2)N1CCOCC1 | -1.6 | nt | nt | nt | -1
Cc1cccnc1NC(=O)CSc1ncnc2sc(C)c(C)c12 | 1.1 | nt | nt | nt | -15
O=S(=O)(c1ccc(Cl)c(NC(=S)N/N=C/c2ccc(O)cc2)c1)N1CCOCC1 | 8.2 | 6% | -26 | -7 | 8
O=C(NCc1nc2ccccc2[nH]1)c1ccc([N+](=O)[O-])cc1 | 4.6 | 3% | nt | 9 | -4
Cc1ccc(NC(=O)CCn2cnc3cc(C)c(C)cc32)cc1 | -0.4 | -2% | -18 | 5 | 3
COC(=O)c1cc(C(=O)NCc2ccccc2)c(=O)[nH]c1C | 2.1 | -5% | nt | -28 | 1
Cc1cccc(C)c1NC(=O)CNC(=O)CCC(=O)c1cccs1 | -6.6 | -5% | -5 | 0 | -2
CC(NC(=O)c1ccc2c(c1)OCCO2)C(=O)O (centres undefined) | 0.3 | 1% | 3 | -1 | 2
CS(=O)(=O)N(CC(=O)Nc1cccc([N+](=O)[O-])c1)c1cccc(F)c1 | 0.7 | -4% | nt | -3 | 13
CCOC(=O)CC(=O)CSc1nccc(-c2cccnc2)n1 | -5.3 | -12% | nt | nt | -1
COCCn1c(=S)[nH]c2cc(OC)c(OC)cc2c1=O | 1.8 | -12% | -4 | -3 | 1
Cc1cc(NC(=O)CSc2nnc3c(C)cc4cc(C)c(C)cc4n23)no1 | -0.6 | -10% | -44 | -8 | 1
O=C(O)c1c[nH]ccc1=O | 2.4 | 5% | -28 | 0 | 7
CCN(CC(=O)Nc1ccc(NC(C)=O)cc1)C(=O)CC1OC(=O)c2ccccc21 (centres undefined) | -0.4 | nt | nt | nt | -6
Clc1cccc(N/N=C/c2ccc(N3CCOCC3)s2)c1 | -2.3 | ? | -12 | -32 | 29
COc1cccc(N2CCN(CC(=O)Nc3ccc(SC(F)F)cc3)CC2)c1 | 2.9 | 7% | -31 | 13 | 3
CCOC(CCn1c(SCc2ccc([N+](=O)[O-])cc2)nc2ccccc2c1=O)OCC | 2.0 | 12% | -22 | -2 | 11
COc1ccccc1C(=O)NC(C)c1ccccc1 (centres undefined) | -0.3 | 0% | -17 | -8 | -9
CCOC(=O)C1=C(C)NC(=O)NC1c1ccc(OCC(=O)Nc2ccccc2)c(OC)c1 (centres undefined) | 2.6 | -8% | -24 | 14 | -7 | Arbovirus inh repeat=1
O=C(Oc1ccc(F)c(F)c1)c1ccc2c(=O)n3c(nc2c1)CCC3 | -0.4 | nt | nt | nt | 60
COc1ccc(S(=O)(=O)N2CCCCCC2)cc1C(=O)Nc1ccccn1 | 4.1 | nt | nt | nt | 0
Cc1ccc(N(CC(=O)NC2CCCCC2)S(=O)(=O)c2c(C)noc2C)cc1 | -0.8 | nt | nt | nt | -7
O=C(Nc1ccc(F)c([N+](=O)[O-])c1)C1CCCO1 (centres undefined) | -1.2 | nt | nt | nt | -6
N#CCC(=O)N/N=C/c1cc(-c2ccccc2)n(-c2ccc(Cl)cc2)c1-c1ccccc1 | -1.8 | 5% | nt | -10 | 65
NCc1oc(-c2ccccc2)cc1C(=O)O | -1.0 | 9% | nt | 16 | -3
CCOc1ccc(S(=O)(=O)NCC2CCCO2)c2cccnc12 (centres undefined) | 6.2 | 1% | 17 | 5 | 0
CCOC(=O)N1CCN(C(=O)CS(=O)Cc2nc(-c3ccc(OC)c(OC)c3)oc2C)CC1 (centres undefined) | -0.8 | nt | nt | nt | -7
CCCCOC(=O)c1[nH]c(C)c(C(=O)OC)c1C | 3.2 | -1% | -28 | 6 | -4
COc1ccccc1N1CCN(C(=O)c2cc3c(s2)-c2ccccc2OC3)CC1 | 6.9 | nt | nt | nt | 1
O=C(NCC(c1cccs1)N1CCOCC1)c1cccc([N+](=O)[O-])c1 (centres undefined) | -2.6 | -17% | 0 | 0 | -1
CCOC(=O)c1c(NC(=O)c2ccc(N3CCOCC3)c([N+](=O)[O-])c2)sc(C)c1C | nt | 0% | -24 | 4 | nt
Cc1cc(OC(=O)c2cccs2)ccc1C(C)C | 1.6 | 52% | -6 | 9 | 60
CCOC(=O)c1cc(-c2ccccc2)sc1NC(=O)c1ccc(OC)c(OC)c1 | -12 | -8% | -21 | -14 | 4
Cc1nc(N2CCN(C(=O)COc3ccccc3)CC2)c2c(C)c(C)sc2n1 | 1.7 | -8% | -10 | -1 | 19
O=C1c2ccccc2CCC12N=NCC2c1ccc(Cl)cc1 (centres undefined) | 13 | -4% | -6 | 4 | 0
CCOC(=O)CSc1nc2c(sc3ccccc32)c(=O)n1CCCN1CCOCC1 | -3.9 | 12% | 2 | -1 | 12
COc1ccccc1/C=C/C(=O)NCC(=O)n1nc(C)cc1C | 0.9 | -3% | nt | nt | -14
CC(=O)c1cccc(NC(=O)c2csc3c2CCCCC3)c1 | -1.0 | -2% | nt | 3 | 2
Cc1nnc(SCC(=O)Nc2ncc3c(n2)CCCC3=O)s1 | -1.3 | -1% | -29 | 3 | -4
C=C(C)Cn1c(SCC(=O)N/N=C/c2cccc(O)c2)nc2ccccc2c1=O | -2.3 | -6% | -24 | 14 | -6
Nc1ccc(C(=O)Oc2ccc([N+](=O)[O-])cc2)cc1 | 3.7 | 48% | nt | nt | -9

The closing 5 records of the part above open the next one.
SMILES | RecA intein inh | Mtb growth | YopH PTP inh | Arbovirus inh | Mtb betalactam | others
COc1ccccc1/C=C/C(=O)NCC(=O)n1nc(C)cc1C | 0.9 | -3% | nt | nt | -14
CC(=O)c1cccc(NC(=O)c2csc3c2CCCCC3)c1 | -1.0 | -2% | nt | 3 | 2
Cc1nnc(SCC(=O)Nc2ncc3c(n2)CCCC3=O)s1 | -1.3 | -1% | -29 | 3 | -4
C=C(C)Cn1c(SCC(=O)N/N=C/c2cccc(O)c2)nc2ccccc2c1=O | -2.3 | -6% | -24 | 14 | -6
Nc1ccc(C(=O)Oc2ccc([N+](=O)[O-])cc2)cc1 | 3.7 | 48% | nt | nt | -9
COc1ccc2c(c1)c1c(n2C(C)=O)C(OC(C)=O)=NCC1 | 0.6 | 9% | -15 | 1 | 5
S=C(NCCc1ccccc1)NCc1cccs1 | 1.2 | -9% | -27 | 1 | 5
O=C(Nc1nc(-c2ccc(Cl)cc2)cs1)NC1CCCCC1 | 5.4 | 39% | -17 | -3 | 97
CC(C)=CC(=O)Nc1ccccc1Br | 1.8 | -1% | -5 | 4 | -1
Cn1c(CCN2CCCCC2)nc2cc(NS(=O)(=O)c3ccc(F)cc3)ccc21 | 1.5 | 3% | -25 | -2 | 7
CCOc1cc(/C=N/O)cc(Cl)c1OC | -1.4 | 4% | -8 | 3 | 11
CC1CCCC(C)N1/N=C/c1ccccc1OC(F)F (centres undefined) | 3.8 | -3% | nt | 1 | 3
C=CCN1C(=O)/C(=C/c2ccc(OC(C)=O)c(OCC)c2[N+](=O)[O-])SC1=S | 12 | 3% | nt | -6 | nt
Cc1cccc(NC(=O)CCNS(=O)(=O)c2cccc3nsnc23)c1C | 1.9 | nt | nt | nt | 1
CCOc1ccc(OCC)c(S(=O)(=O)N2CCC(C)CC2)c1 | -5.3 | -1% | -1 | 3 | 7
CCOc1cc(CN2CCN(c3ccc(C(C)=O)cc3)CC2)ccc1OC | 0.2 | 2% | -1 | 3 | 1
Cc1ccc(NC(=O)c2cccc3c2C(=O)N(C2CCCCC2)C3)c(C)c1 | 0.8 | nt | nt | nt | 6
C=CCn1c(SCC(=O)Nc2nnc(CC)s2)nnc1-c1ccco1 | -2.9 | -1% | -48 | 15 | -11
COc1ccc(Nc2cc(C)nc3ccccc23)cc1 | -0.5 | 6% | -9 | 3 | 4
COc1ccc(CN2CCN(Cc3ccon3)CC2CCO)c(C)c1C (centres undefined) | -0.5 | -13% | nt | nt | -1
C=C(C)C1CC=C(C)/C(=N\NC(=O)CCc2ccccc2)C1 (centres undefined) | -0.1 | 3% | -28 | 3 | 4
COCCNC(=O)CCCN1C(=O)c2ccccc2Sc2ncccc21 | 0.3 | nt | nt | nt | 48
COc1ccc(Nc2nc3ccccc3n3cnnc23)cc1Cl | 0.6 | nt | nt | nt | -2
COC(=O)CSc1nc(N2CCOCC2)c2c(c1C#N)CCCC2 | nt | ? | nt | nt | 99
Cc1ccccc1Nc1nnc(SCC(=O)N(C)C2CCS(=O)(=O)C2)s1 (centres undefined) | -5.8 | -3% | -27 | -2 | -1
COC(C[C@@H](O)C[C@@H](O)[C@H](C)OCc1ccccc1)OC | -0.2 | -6% | nt | nt | -6
O=C(CNC(=O)c1ccc(Br)o1)NCc1ccc(Cl)cc1 | 1.4 | nt | nt | nt | 2
O=C(Nc1ccccc1)O/N=C/c1ccncc1 | 2.3 | -12% | 10 | 1 | 1
O=C(NC(=S)Nc1nc(-c2ccccc2)cs1)c1cncc(Br)c1 | -0.4 | 23% | -33 | -2 | -2
CCOc1ccccc1OCC(=O)Nc1ccc(S(=O)(=O)N(C)C)cc1 | 2.9 | nt | -36 | 5 | ?
CCc1cccc2c(C(=O)C(NCCOC)c3ccccc3)c[nH]c12 (centres undefined) | 0.8 | nt | nt | nt | -4
COc1ccc2oc(C(=O)c3ccccc3)c(NC(=O)CN3CCN(C)CC3)c2c1 | -0.6 | nt | -20 | -24 | 21
FC(F)(F)c1ccccc1C1=CC(c2ccccc2)n2ncnc2N1 (centres undefined) | -210 | -16% | nt | nt | -5

Screening data: PubChem BioAssay, several laboratories
